Rango complex inh: qHTS Assay for Inhibitors of Rango (Ran-regulated importin-beta cargo) - Importin beta complex formation; Importin subunit beta-1 (Homo sapiens), Q14974; Rango CFP/YFP FRET sensor + importin beta, 45 min; Potency, µM (series often up to 92.2 µM), without a hit: top-dose inhibition of complex formation; 0.031% of 340,000 active; AID 540263, 2011; active = rising FRET ratio curve, often small or poorly fitted; inconclusive = mostly compound fluorescence or quenching in the first reads; inactive = flat curves in all reads;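 also: potency is read from the fitted curve at half-maximal effect; 0% = DMSO wells and 100% = buffer wells lacking importin beta; nearly all actives have a fitted effect of over 15% in size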
Target sequence (Q14974 whole entry, looked up): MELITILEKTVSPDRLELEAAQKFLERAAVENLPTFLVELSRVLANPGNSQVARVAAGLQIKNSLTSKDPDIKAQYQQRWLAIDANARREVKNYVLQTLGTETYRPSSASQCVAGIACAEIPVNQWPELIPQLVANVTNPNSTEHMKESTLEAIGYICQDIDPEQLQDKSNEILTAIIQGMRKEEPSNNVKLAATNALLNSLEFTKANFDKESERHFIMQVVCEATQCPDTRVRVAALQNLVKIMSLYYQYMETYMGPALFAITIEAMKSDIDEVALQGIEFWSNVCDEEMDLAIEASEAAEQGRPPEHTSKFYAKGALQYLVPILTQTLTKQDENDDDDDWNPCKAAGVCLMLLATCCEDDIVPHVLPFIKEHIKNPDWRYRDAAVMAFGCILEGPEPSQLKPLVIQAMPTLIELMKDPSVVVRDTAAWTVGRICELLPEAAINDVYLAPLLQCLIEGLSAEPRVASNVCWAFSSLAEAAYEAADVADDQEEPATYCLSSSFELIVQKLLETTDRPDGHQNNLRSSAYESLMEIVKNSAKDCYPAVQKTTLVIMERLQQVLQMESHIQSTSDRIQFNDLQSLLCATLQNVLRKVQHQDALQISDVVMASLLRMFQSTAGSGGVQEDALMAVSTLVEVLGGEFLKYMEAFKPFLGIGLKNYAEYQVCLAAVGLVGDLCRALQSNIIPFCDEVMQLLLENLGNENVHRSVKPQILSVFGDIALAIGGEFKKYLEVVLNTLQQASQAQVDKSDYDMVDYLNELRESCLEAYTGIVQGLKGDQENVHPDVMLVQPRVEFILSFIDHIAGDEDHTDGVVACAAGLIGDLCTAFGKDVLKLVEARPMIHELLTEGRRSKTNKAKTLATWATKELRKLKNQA
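Inhibition scored from the CFP 486 nm/YFP 530 nm FRET ratio 45 min after adding 0.125 microM importin beta to 50 nM Rango biosensor preincubated 5 min with compound (room temperature, PBS with DTT, Tween-20, BSA). No-importin wells as positive control.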
miR-21 reporter: qHTS Assay for Modulators of miRNAs and/orActivators of miR-21. HeLa miR-21 FLuc reporter, luciferase, 48 h. 340,000 tested, under 10 active. Potency, µM (series often up to 38.3 µM), for inactives: at the highest dose reporter change, positive = more light; active = well fitted rising curve with a large enough effect; inconclusive = small, poorly fitted or top-dose-only effect; inactive = no such curve, though single readings can be large or run the other way;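 also: % of control where 0% means no effect; miR-21 action dims this reporter so a rising signal means less miR-21 action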
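HeLa miR-21-FLuc reporter line, endogenous miR-21; 2000 cells/well in DMEM/10% FBS; compound titration up to ~40uM final, 48 h, 37 degree Celsius; luciferase detection reagent, 15 min lysis, CCD luminescence.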
Rango dissoc inh: qHTS Assay for Inhibitors of RanGTP induced Rango (Ran-regulated importin-beta cargo) - Importin beta complex dissociation; Biochemical FRET Rango-importin beta, RanGTP-induced dissociation; Potency, µM (doses to about 46.1 µM), for the others: top-dose activity change, negative = inhibition; 0.071% of 340,000 active; AID 540253, 2011; active means falling FRET ratio curve, often poorly fitted, with flat reads before Ran was added; inconclusive means other falling curves, or compound fluorescence or quenching; inactive means flat or rising ratio curve;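 also: potency is read from the fitted curve at half-maximal effect; % of control where 0% means no effect; nearly all actives have a fitted effect of over 45% in size; -100% = wells without RanGTP and RCC1; the record marks most hits as doubtful in a second field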
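Compounds sat 5 min at room temperature with 0.1 uM Rango biosensor plus 0.25 uM importin beta, then FRET pre-read. RanGTP-RCC1 (0.6 uM Ran, 2mM GTP, 0.2 uM RCC1) added for 45 min, and the CFP/YFP post-read measured blocked complex dissociation.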
GLA inh pH 4.5: qHTS Assay for Inhibitors of Human alpha-Galactosidase at pH 4.5 | Alpha-galactosidase A (Homo sapiens), P06280 | purified enzyme, 4-MU-alpha-Gal fluorescence, pH 4.5 | activity change, negative = inhibition, % at 105 µM | 230,000 tested, under 10 active; inconclusive = small, poorly fitted or top-dose-only inhibition, or a rising curve; inactive = flat fitted curve, though single readings scatter; no compound was filed as active;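 also: 0% = full activity with enzyme and -100% = basal without enzyme; dose as in the result columns while the protocol names 77 µM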
Starred values were filed as active, the others as inactive; ? = inconclusive; · = no result given; & = joins results of further samples. Some of the compounds tested, so the mix of outcomes need not match the whole.

SMILES	Rango complex inh	miR-21 reporter	Rango dissoc inh	GLA inh pH 4.5
CC(C)C[C@H](NC(=O)c1nc[nH]c1C(=O)N[C@@H](CCCCN)C(=O)OC(C)(C)C)C(=O)OC(C)(C)C	2.3%	·	-9%	·
COC(=O)c1c(O)cc(C(C)(C)C)n(-c2ccccc2)c1=O	-4.0%	-6%	11%	-12
O=C(Cn1c(NCCCO)nc2ccccc21)c1ccc(Cl)cc1Cl	-1.8%	-4%	-5%	·
Cc1cc(C)nc(/N=C(\N)Nc2cccc([N+](=O)[O-])c2)n1	-2.5%	-5%	7%	8
COC(=O)c1ccc(NC(=O)CSc2nnc(-c3ccccc3)n2C)cc1	-0.3%	-2%	-2%	-14
Cn1sccc1=O	?	·	-3%	·
O=c1[nH]c2ccccc2nc1C(F)(F)C(F)F	2.2%	-2%	1%	14
NC(=O)C1CCN(C2CC(=O)N(c3cccc(F)c3)C2=O)CC1 (stereo not given)	3.0%	-3%	-1%	-1
CCCCOCCCNC(=O)N[C@H](C(=O)OC)C(C)CC (stereo not given in full)	0.5%	0%	0%	-4
COc1ccc(Br)cc1CNC(=O)C1CCN(S(=O)(=O)N2CCCC2)CC1	-2.9%	-7%	-4%	-2
O=C1CCC([N+](=O)[O-])C(c2ccc(F)c(Br)c2)N1 (stereo not given)	-0.3%	1%	35%	·
O=C(CNC(=O)c1ccccc1)OCN1C(=O)c2ccccc2C1=O	-6.4%	·	-1%	·
CCCC(=O)Nc1nnc(SCC(=O)NCc2ccc3c(c2)OCO3)s1	-0.7%	0%	10%	0
Cc1ccc(C(=O)NCC(=O)NCc2ccccc2F)s1	-4.5%	·	-4%	·
O=C(OCC(O)C(O)C(O)COC(=O)c1ccccc1)c1ccccc1 (stereo not given)	4.5%	·	0%	·
CCC1Sc2ccc(S(=O)(=O)CCC(=O)NC3CCCCCC3)cc2NC1=O (stereo not given)	-0.3%	22%	0%	·
CCOC(=O)[C@H]1[C@H]2COc3cc(OC)ccc3[C@@H]2N2C(=O)N(c3ccc(Cl)cc3)C(=O)[C@@]12C	3.4%	9%	4%	·
Cc1cccc(N=C2NN=C(c3c[nH]c4ccccc34)CS2)c1	-1.8%	-39%	-10%	7
CCc1nnc(NC(=O)c2ccc3c(c2)C(=O)N(C(C)(C)C)C3=O)s1	-3.7%	-39%	11%	3
Clc1ccc(Oc2cnns2)cc1Cl	-0.5%	-2%	3%	-3
CCCc1cc(=O)[nH]c(SCC(=O)Nc2sccc2C#N)n1	-0.6%	·	12%	·
Cc1cc(NCCO)c2cc(O)ccc2n1	?	3%	?	22
CC(OC(=O)CCC(=O)c1ccc(F)cc1)C(=O)NC1CCCCC1C (stereo not given)	4.1%	-2%	-1%	·
CCN(CC(=O)Nc1c(F)cccc1F)C(=O)C1CCCN(C(=O)c2ccc(Cl)cc2)C1 (stereo not given)	-0.4%	-13%	-8%	·
CCOC(=O)C(Nc1ccc2ccccc2c1)C(=O)OCC	-5.7%	-50%	3%	0
COc1cc(C2C(C(=O)c3ccc(C)o3)=C(O)C(=O)N2CCCn2ccnc2)cc(OC)c1OC (stereo not given)	5.1%	-6%	-9%	·
CCC(C)C(NC(=O)C1CCC(C)CC1)C(=O)NCc1cccnc1 (stereo not given)	1.0%	-12%	11%	0
FC(F)Oc1ccc(NC(=S)N2CCN(Cc3ccccc3)CC2)cc1	0.2%	4%	1%	0
O=C(COC(=O)c1cccnc1)Nc1ccc2c(c1)OCO2	-2.3%	-5%	0%	-1
COc1ccc(CCNC(=O)/C(C#N)=C2\N=C(NC(=O)c3cccs3)c3ccccc32)cc1	?	-5%	?	-2
COc1cccc(/C=N/NC(=S)NCCc2ccccc2)c1OC	-4.7%	-12%	-10%	·
COc1cc(O)c(C(=O)CC(=O)c2ccncc2)c(OC)c1	1.9%	·	20%	·
C/C(N)=C(/C#N)C(=O)COC(=O)COc1ccc(Cl)cc1	-1.0%&2.5%	-5%	1%&22%	-7
Cc1cccc2[nH]c(CN(C)C(=O)C3CCC(=O)N(C4CC4)C3)nc12 (stereo not given)	-3.0%	1%	-3%	·
COc1cccc(NC(=O)N2CCOCC2)c1	-1.5%	-13%	0%	3
COc1ccc(S(=O)(=O)Nc2c(F)cccc2F)cc1	?	-1%	0%	5
Cc1ccc(C(=O)NCCCN2CCOCC2)cc1S(=O)(=O)N1CCOCC1	-2.8%	·	8%	·
COc1ccccc1/C=C/C(=O)OCC(=O)Nc1ccccc1Sc1ccccc1	-2.6%	-5%	-3%	-10
CC(=O)C(Sc1nc(NC(C)(C)C)nc(N(C)C)n1)C(C)=O	1.0%	-47%	16%	6
COc1cccc(C(=O)N2CCN(Cc3ccco3)CC2)c1OC	2.2%	1%	3%	9

Ordered by value in Rango complex inh (largest number first): some entries from above.
canonical_smiles,Rango complex inh
NC(=O)C1CCN(C2CC(=O)N(c3cccc(F)c3)C2=O)CC1 (stereo not given),3.0%
O=C(COC(=O)c1cccnc1)Nc1ccc2c(c1)OCO2,-2.3%
O=C(CNC(=O)c1ccccc1)OCN1C(=O)c2ccccc2C1=O,-6.4%

(next part)
SMILES	Rango complex inh	miR-21 reporter	Rango dissoc inh	GLA inh pH 4.5
CCOc1ccccc1-c1nc(CN2CCN(C(=O)c3ccco3)CC2)c(C)o1	-1.1%	-5%	-2%	·
COC(=O)C1CCN(c2ccc(Cl)nn2)CC1	-1.0%	0%	-5%	12
c1csc(-c2nc(CN3CCSCC3)cs2)c1	1.8%	3%	12%	-2
Cc1ccsc1/C=N/NC(=O)Cc1cccn1C	-4.6%	-23%	16%	-7
NC(=O)CC(NC(=O)c1ccc(Br)cc1)c1ccc(N2CCC(Br)CC2)c([N+](=O)[O-])c1 (stereo not given)	6.7%	-7%	24%	4
Cc1ccc(-c2cc(C(=O)N/N=C/c3ccccc3O)n[nH]2)o1	-1.5%	16%	-10%	·
CC1Cc2nc(SCC(=O)N3CCOCC3)n(C)c(=O)c2S1 (stereo not given)	-1.7%	1%	1%	·
CCCCN(CCCC)CCCN1CC(=O)N2[C@@H](Cc3c([nH]c4ccccc34)C2(C)C)C1=O	-1.4%	3%	-1%	·
CC(c1ccco1)N(C(=O)CSc1ccc(Br)cc1)c1ccccn1 (stereo not given)	-1.3%	10%	-10%	-10
Cn1nc(N)nc1N1CCN(c2ccc(F)cc2)CC1	-2.9%	0%	6%	3
CC1(C)CC(NC(=O)c2ccccc2C(=O)NC2CC(C)(C)NC(C)(C)C2)CC(C)(C)N1	-1.3%	0%	-17%	-4
Cc1ccc(S(=O)(=O)N2CCCCC2)cc1NC(=O)c1c(-c2ccccc2)noc1C	-3.7%	·	24%	·
CCN(CC)S(=O)(=O)c1ccc(Cl)c(NC(=O)COC(=O)/C=C/c2cc(OC)c(OC)c(OC)c2)c1	4.7%	-4%	-23%	-7
CCN1C(=NCC(C)C)N[C@@H](c2cccc(F)c2)C(C(=O)OC)=C1C	0.6%	3%&1%	12%	·
COc1ccc(/C=N/NC(=O)CCn2c3ccccc3c3ccccc32)cc1O	-1.5%	15%	-13%	-4
COc1ccc(N2C(=O)CC(Cc3ccc(Br)cc3)C2=O)cc1 (stereo not given)	4.5%	2%	-9%	·
CCN1C(=O)[C@H]2[C@@H](c3ccc(-c4ccc(F)cc4)cc3)N[C@@](Cc3ccccc3)(C(=O)OC)[C@H]2C1=O	?	·	0%	·
CCCn1c(=S)[nH]c2cc(C(=O)NCC3CCCO3)ccc2c1=O (stereo not given)	5.1%	-1%	19%	-1
Cc1n[nH]c(=O)c2c(NC(=O)CSc3ncccn3)oc(C)c12	4.5%	·	-10%	·
C=CCOC(=O)C1=C[C@H](C2CC2)[C@@H](CCCO)[C@H](OCC)O1	?	2%	-27%	4
Cc1ccc(NC(=O)CN(c2ccccc2)S(=O)(=O)N(C)C)cc1	0.1%	-7%	-3%	-16
O=C(NCCCN1CCN(c2ccccc2F)CC1)C1CC(=O)N(C2CCCC2)C1 (stereo not given)	3.8%	-2%	-11%	-2
CC(Oc1ccc(Cl)cc1Cl)C(=O)Nc1ccc(O)cc1 (stereo not given)	1.8%	-23%	-5%	-10
O=[N+]([O-])c1ccccc1/C=C/CN1CCCC(CO)C1 (stereo not given)	0.1%	-1%	2%	·
Cc1ccc(-c2c(C)n([O-])c3c([n+]2=O)CCC3)o1	-2.5%	-4%	-16%	6
N#Cc1ccccc1OCC(=O)OCC(=O)c1ccc2c(c1)NC(=O)CO2	4.1%	-1%	1%	-7
COc1ccc(CNC(=O)CCSc2nc(-c3ccc4c(c3)OCO4)cc(C(F)(F)F)n2)cc1	0.5%	-2%	-16%	-11
Cc1c(C(=O)N2C[C@@H](C)O[C@@H](C)C2)oc2c(F)cccc12	-2.2%	-81%	-24%	·
O=[N+]([O-])c1ccccc1S(=O)(=O)N1CCCCC1	4.8%	-7%	5%	-2
Cc1ccc(SCC(=O)Nc2cccc(C(=O)NC(C)(C)C)c2)cc1	-2.5%	-8%	2%	-14
O=C(CCC(=O)Nc1ccc(F)cc1)N/N=C/c1cc([N+](=O)[O-])ccc1O	-5.3%	0%	-14%	-16
COc1cc(SC)ccc1C(=O)Nc1c(Cl)cncc1Cl	2.9%	1%	0%	8
Cn1nnnc1SCC(=O)N1CCN(c2ccccc2)CC1	0.3%	-2%	-13%	-6
Cc1cc(Br)c2c(c1)C1(OCCO1)C(=O)N2	3.0%	-7%	25%	·
CCCSC1C(C)=C(C)C(=O)N1Cc1ccccc1 (stereo not given)	1.5%	-3%	0%	·
S=C(Nc1ccccc1)N1CCN(c2ccccc2)CC1	1.9%	·	4%	·
COCc1cc(C)nc(SCC(=O)Nc2ccc3c(c2)OCCO3)c1C#N	-0.1%	-48%	-2%	·
O=C(NCCN1CCOCC1)c1cc2sccc2n1Cc1ccc(Cl)cc1	4.3%	21%	-13%	-1
CC(=O)Nc1ccccc1C(=O)C(=O)Nc1cccc(F)c1	2.3%	·	13%	·
O=C(NCCSCc1ccccc1)c1ccc(C2SCC(=O)N2Cc2ccccc2)cc1 (stereo not given)	3.3%	17%	13%	-17
Cc1cccc(Cc2nnc(CCC(=O)NCc3cnc4ccccn34)o2)c1	2.6%	0%	3%	4
COc1ccc(NC(=O)c2ccccc2OCc2c(C)noc2C)cc1OC	?	-6%	0%	·
CN(CC(=O)NC(=O)NCc1ccccc1)Cc1ccc(Cl)cc1	1.1%	-2%	0%	-8
CCC(C)NC(=O)[C@H]1N2C(=O)c3c(ccc(OC)c3OC)C2SC1(C)C (stereo not given in full)	-0.8%	3%	11%	·
COc1ccc(C(c2nnnn2C2CCCC2)N2CCC(C(N)=O)CC2)c(OC)c1 (stereo not given)	-0.3%	-6%	2%	-3
COc1cc(C)ccc1OCCOc1c(Cl)cc(Cl)cc1Cl	0.0%	-11%	-9%	7
CCCn1c(SCC(=O)N2CCc3ccccc3C2)nc2c1c(=O)n(C)c(=O)n2C	1.9%	-6%	-9%	1
Cc1ccccc1N1C(=O)C2C3C=CC(CC3)C2C1=O (stereo not given)	-2.9%	4%	-12%	·
O=C(O)c1ccc(NS(=O)(=O)c2cc(Cl)ccc2Cl)cc1O	1.2%	-7%	6%	8
Nc1c(NCCN2CCCCC2)c2ccccc2oc1=O	-1.5%	1%	-6%	4
COc1ccc(CCNc2ncnc3c2nnn3Cc2ccccc2)cc1OC	1.7%	12%	1%	·
COc1ccccc1C(=O)NCCC(=O)NCCOc1ccccc1	-1.9%	-9%	-10%	·

Two entries from above, reformatted:
| smiles | Rango complex inh | miR-21 reporter | Rango dissoc inh | GLA inh pH 4.5 |
| --- | --- | --- | --- | --- |
| CCCCN(CCCC)CCCN1CC(=O)N2[C@@H](Cc3c([nH]c4ccccc34)C2(C)C)C1=O | -1.4% | 3% | -1% | · |
| CC(c1ccco1)N(C(=O)CSc1ccc(Br)cc1)c1ccccn1 (stereo not given) | -1.3% | 10% | -10% | -10 |

Bioassay records: PubChem BioAssay, National Center for Advancing Translational Sciences (NCATS)
